HSV replic up: enhancers of HSV replication in host cells, fold increase, host cell viability. maximum fold increase. AID 1956, 2009. 0.005% of 220,000 active. HSV replication augmentation in cells;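 active = peak rise of 1.5-fold or more in the series; inconclusive = self-fluorescent or not available for retest; tested in PC3 cells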;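 note: first round at 10 µM; read as green reporter fluorescence; hits show the peak of a series up to 25 µM; 1 = signal of infected wells without compound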
RGS16-Gao HTS: modulators of RGS16 binding to Galphao, primary screen, biochemical, human proteins, multiplexed bead flow cytometry | Regulator of G-protein signaling 16 (Homo sapiens) + Guanine nucleotide-binding protein … | bead-based flow cytometry RGS16-Galphao binding, fluorescence; actives lie on both sides | binding response (% of control), % at 10 µM | 0.38% of 220,000 active | AID 1441, 2008;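 active = below 25% or above 175%, edge rows of some plates excepted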;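 note: Galphao activated by GDP with aluminum fluoride before binding; 100% = wells without compound and 0% = beads without RGS; some results beyond the cut were filed as inactive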
Target sequence (O15492 whole entry, looked up): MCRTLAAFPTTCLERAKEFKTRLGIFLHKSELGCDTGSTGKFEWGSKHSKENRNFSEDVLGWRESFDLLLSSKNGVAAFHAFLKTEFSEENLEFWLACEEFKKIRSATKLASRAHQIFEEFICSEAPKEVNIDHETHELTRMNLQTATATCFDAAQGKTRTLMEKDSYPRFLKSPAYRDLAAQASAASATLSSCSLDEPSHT
Target sequence (P09471 whole entry, looked up): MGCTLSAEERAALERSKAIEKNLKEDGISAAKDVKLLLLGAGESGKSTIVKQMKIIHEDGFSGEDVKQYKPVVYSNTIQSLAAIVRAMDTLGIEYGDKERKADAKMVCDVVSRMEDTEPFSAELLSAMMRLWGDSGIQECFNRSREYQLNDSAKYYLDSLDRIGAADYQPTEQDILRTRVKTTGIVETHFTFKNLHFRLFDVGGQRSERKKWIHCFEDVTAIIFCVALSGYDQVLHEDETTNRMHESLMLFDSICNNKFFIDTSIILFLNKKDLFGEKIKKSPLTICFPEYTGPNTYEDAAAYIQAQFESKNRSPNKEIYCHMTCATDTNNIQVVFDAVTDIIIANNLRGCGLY
GALR2 agonist: GALR2 receptor agonists, primary screen, cell-based; Galanin receptor type 2 (Homo sapiens), O43603; GALR2-expressing cells, agonist activation read-out; activation, %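 (tested at 5 µM)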; 0.48% of 140,000 active; AID 803, 2007;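 active = above mean plus 3 SD of all compounds, about 5% in these data, not always enough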;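 note: 0% = vehicle buffer wells and 100% = reference agonist at full effect; tested in CHO reporter cells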
Target sequence (O43603 whole entry, looked up): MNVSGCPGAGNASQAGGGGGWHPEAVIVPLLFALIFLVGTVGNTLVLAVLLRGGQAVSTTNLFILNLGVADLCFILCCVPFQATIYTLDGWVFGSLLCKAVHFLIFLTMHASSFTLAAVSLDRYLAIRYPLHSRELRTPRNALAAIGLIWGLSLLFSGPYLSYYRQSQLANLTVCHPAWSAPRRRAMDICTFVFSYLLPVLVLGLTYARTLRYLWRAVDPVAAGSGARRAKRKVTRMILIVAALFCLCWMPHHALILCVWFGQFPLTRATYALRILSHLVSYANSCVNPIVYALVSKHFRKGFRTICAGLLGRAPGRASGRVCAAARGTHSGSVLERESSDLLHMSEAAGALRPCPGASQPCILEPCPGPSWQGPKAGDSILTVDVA
PKD1 kinase inh: inhibitors of human PKD1 kinase, biochemical, fluorescence polarization; Serine/threonine-protein kinase D1 (Homo sapiens), Q15139; PKD1 kinase fluorescence polarization assay; inhibition, %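 (about 10 µM by stock and volumes)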; 0.056% of 200,000 active; AID 797, 2007;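 active = inhibition of 50% or more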;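 note: controls were vehicle for no effect and a reference inhibitor for full effect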
INS promoter inh: inhibitors of insulin promoter-driven GFP, primary screen, imaging, TRM-6 cells (human fetal islet line), eGFP reporter, cell count; reporter expression induced with tamoxifen; inhibition, % at 2 µM; 0.9% of 130,000 active; AID 1273, 2008;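 active = inhibition above the mean plus 3 SD, with well images judged a real hit on visual review, cut at about 60% in these data, passing the limit was not always enough; inconclusive = inhibition over the cutoff but images rejected on review; inactive = inhibition not above the cutoff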
INS promoter inh cell count: second read-out of INS promoter inh, no call of its own (marks repeat the call); normalized cell count, %; measured here: cell count, toxicity; reference of the scale not given here;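 cells exposed to compound for 48 h; stained nuclei by imaging scaled within each plate; lower means fewer cells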
HSV replic up primary fold: second read-out of HSV replic up, no call of its own (marks repeat the call); fold increase; compound at 10 µM; measured here: primary screen fold increase 10 uM; tested in PC3 cells;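 GFP signal in the first replicate; 1 = infected wells without compound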
Starred values were filed as active, the others as inactive; i = inactive; ? = inconclusive; . = no result given.

SMILES | HSV replic up | HSV replic up primary fold | RGS16-Gao HTS | GALR2 agonist | PKD1 kinase inh | INS promoter inh | INS promoter inh cell count
COc1ccc2oc(=O)c(C(=O)NCc3ccccn3)cc2c1 | i | 0.94 | 105 | -0.6 | 3 | -50 | 70
Cc1ccc(C)c(N(CC(=O)NCCSCc2ccco2)S(C)(=O)=O)c1 | i | 1 | 91 | -2.9 | 3 | -82 | 90
CN(C)CCOC(c1ccc(Cl)cc1)c1ccccn1 (centres undefined) | i | 0.94 | 95 | . | 4 | 47 | 127
CS(=O)(=O)N(CC(=O)NCC1CCCO1)Cc1ccc(Cl)cc1 (centres undefined) | i | 0.85 | 107 | -3.2 | -14 | 27 | 91
COc1cc(C=C2C(=O)OC(C)(C)OC2=O)ccc1OCC(=O)Nc1ccccc1 | i | 1.1 | 89 | . | 1 | . | .
COc1ccc(-c2[nH]ncc2/C=N\NS(=O)(=O)c2ccc(Cl)cc2)cc1 | i | 0.86 | 102 | -1.7 | -6 | 6 | 122
COc1cc(C=O)ccc1OCC(=O)N1CCOCC1 | i | 1.1 | 103 | -2.8 | 2 | -14 | 125
Cc1c(N(C)C(=O)c2ccccc2F)c(=O)n(-c2ccccc2)n1C | i | 0.93 | 92 | -0.9 | 5 | . | .
O=C(CCCOc1ccccc1)Nc1nncs1 | i | 0.78 | 119 | -1.8 | -4 | 46 | 70
CN(C)S(=O)(=O)N1CCC(CO)(Cc2cccc(C(F)(F)F)c2)CC1 | i | 1.1 | 99 | . | 6 | . | .
CS(=O)(=O)N(CC(=O)Nc1ccccc1C(=O)NCc1ccccc1)c1ccc2c(c1)OCCO2 | i | 1.1 | 67 | -1.1 | 2 | . | .
O/N=C/c1cn(-c2ccc(Cl)cc2)nn1 | i | 0.93 | 105 | . | -6 | -22 | 124
CCN(CC)CCCNC(=O)Cn1nc(-c2ccccc2)ccc1=O | i | 0.95 | 101 | -2.8 | 4 | -54 | 87
O=C(CCn1nc(-c2ccccc2)c2ccccc2c1=O)Nc1cccnc1 | i | 0.98 | 100 | . | 5 | . | .
O=C(CNS(=O)(=O)c1ccccc1)NCC(=O)OCc1ccc(Cl)cc1 | i | 0.95 | 99 | . | . | . | .
CCOC(=O)Cc1ccc(NS(=O)(=O)c2ccc(SC)cc2)cc1 | i | 1 | 113 | -2.5 | -3 | -62 | 103
O=C(O)[C@H]1CCCC[C@H]1C(=O)Nc1cc([N+](=O)[O-])ccc1F | i | 0.98 | 92 | -1.2 | 1 | -44 | 173
CC(C(=O)N1CCN=C1c1ccccc1)N1C(=O)c2ccccc2C1=O (centres undefined) | i | 0.8 | 102 | . | . | . | .
CC(C)C(=O)NC(NC(=S)Nc1ccc(S(N)(=O)=O)cc1)C(Cl)(Cl)Cl (centres undefined) | i | 0.99 | 101 | -0.3 | -4 | 14 | 114
COC(=O)Nc1nnc(/C=C/c2ccccc2)s1 | i | 0.89 | 102 | 0.5 | 1 | 0 | 146
O=C(COc1ccccc1)N1CCc2ccccc2C1 | i | 0.89 | 102 | -1.6 | -3 | -3 | 131
O=C(CSc1nc2cc(Cl)ccc2s1)NC1CCCc2ccccc21 (centres undefined) | i | 1.1 | 107 | -0.5 | -5 | 41 | 99
Nc1nc(N2CCN(C(=O)c3ccco3)CC2)nc2ccccc12 | i | 0.72 | 105 | -1.6 | 5 | -406 | 75
O=C(O)CCn1c(=O)[nH]c2ccccc2c1=O | i | 0.96 | 101 | -1.4 | -7 | . | .
CCN(CC)S(=O)(=O)c1ccc(/C=C/C(=O)Nc2ccc(F)cc2F)cc1 | i | 0.91 | 98 | -0.7 | 2 | . | .

Some of the entries above in a different format.
The line under a structure holds: HSV replic up	HSV replic up primary fold	RGS16-Gao HTS	GALR2 agonist	PKD1 kinase inh	INS promoter inh	INS promoter inh cell count
CCOC(=O)Cc1ccc(NS(=O)(=O)c2ccc(SC)cc2)cc1
  i	1	113	-2.5	-3	-62	103
O=C(O)[C@H]1CCCC[C@H]1C(=O)Nc1cc([N+](=O)[O-])ccc1F
  i	0.98	92	-1.2	1	-44	173
CC(C(=O)N1CCN=C1c1ccccc1)N1C(=O)c2ccccc2C1=O (centres undefined)
  i	0.8	102	.	.	.	.
CC(C)C(=O)NC(NC(=S)Nc1ccc(S(N)(=O)=O)cc1)C(Cl)(Cl)Cl (centres undefined)
  i	0.99	101	-0.3	-4	14	114
COC(=O)Nc1nnc(/C=C/c2ccccc2)s1
  i	0.89	102	0.5	1	0	146
O=C(COc1ccccc1)N1CCc2ccccc2C1
  i	0.89	102	-1.6	-3	-3	131
O=C(CSc1nc2cc(Cl)ccc2s1)NC1CCCc2ccccc21 (centres undefined)
  i	1.1	107	-0.5	-5	41	99
Nc1nc(N2CCN(C(=O)c3ccco3)CC2)nc2ccccc12
  i	0.72	105	-1.6	5	-406	75
O=C(O)CCn1c(=O)[nH]c2ccccc2c1=O
  i	0.96	101	-1.4	-7	.	.
CCN(CC)S(=O)(=O)c1ccc(/C=C/C(=O)Nc2ccc(F)cc2F)cc1
  i	0.91	98	-0.7	2	.	.

(cont.)
SMILES | HSV replic up | HSV replic up primary fold | RGS16-Gao HTS | GALR2 agonist | PKD1 kinase inh | INS promoter inh | INS promoter inh cell count
COC(=O)Cc1ccc(NC(=S)N2CCN(c3cccc(O)c3)CC2)cc1 | i | 0.94 | 100 | -0.9 | -1 | 27 | 166
COc1ccc(CN(C(=O)CN2C(=O)C(C)Oc3ccccc32)C2CCCC2)c(OC)c1 (centres undefined) | i | 1 | 44 | -1.4 | 1 | -100 | 112
O=c1cc(/N=C/c2coc3cc(Br)ccc3c2=O)[nH]c(=S)[nH]1 | i | 1.1 | 103 | . | . | . | .
Cc1cc(Cl)c(S(=O)(=O)NCc2cccnc2)cc1OCC(N)=O | i | 0.91 | 98 | -0.5 | -15 | 56 | 153
Cn1c(=O)cc(SCC(=O)NCCC2=CCCCC2)c2cc(Cl)ccc21 | i | 1 | 96 | 0.5 | 0 | . | .
CCCCN(C)CCCNC(=O)CC1Oc2ccccc2NC1=O (centres undefined) | i | 0.91 | 102 | -0.8 | -5 | . | .
CC(C)[C@H](NC(=O)c1ccco1)C(=O)OCC(=O)N1CC(=O)Nc2ccccc21 | i | 1 | 102 | . | 0 | . | .
CCN(CC)C(=O)c1ccc2c(c1[N+](=O)[O-])C(=O)c1ccccc1C2=O | ? | . | 99 | -0.9 | -2 | . | .
CCN1CC=C2C(C#N)=C(N)C(C#N)(C#N)[C@H](c3ccoc3)[C@H]2C1 | ? | . | 99 | 0.2 | -5 | -25 | 78
COc1cccc(OC)c1C(=O)Nc1ccc(N2CCCCC2)cc1 | i | 0.93 | 101 | 0.0 | -3 | -21 | 196
N#CCCN(C(=O)COc1ccc(Br)cc1F)c1ccc(F)cc1 | . | . | 113 | . | -10 | -114 | 53
CC(=O)Nc1ccc(Nc2ncnc3c2cnn3-c2ccc(C)cc2C)cc1 | i | 0.88 | 100 | 76* | -6 | . | .
COc1ccc(OCC(O)CNC(=O)c2ccccc2)cc1 (centres undefined) | i | 1.1 | 101 | . | . | . | .
Cc1ccc(C(=O)COC(=O)c2cc(=O)[nH]c3ccccc23)cc1C | i | 0.92 | 99 | . | -4 | 29 | 138
CNC(=O)N(C1=NCCCCC1)c1ccc(Br)cc1 | i | 1.2 | 101 | -0.8 | -6 | . | .
COC(=O)c1ccc(NC(=O)CSc2nnc(C(C)NC(=O)c3ccccc3Cl)n2C)cc1 (centres undefined) | i | 1 | 99 | -2.3 | -18 | 35 | 84
O=C(NC1CCCC1)C(c1ccccc1F)N(C(=O)c1ccco1)C1CCCC1 (centres undefined) | i | 1.1 | 106 | -0.4 | 2 | . | .
C=CCn1c(NC)cc(=O)n(C)c1=O | i | 0.83 | 103 | -1.9 | -3 | 45 | 82
CC(C)Oc1cc(NC(=O)CS(=O)(=O)CC(=O)N(C)C)c(Cl)cc1Cl | i | 0.89 | 99 | . | -7 | . | .
Cc1ccccc1C(=O)N1CCN(c2ccc(NC(=O)c3ccco3)cc2Cl)CC1 | i | 0.84 | 107 | -2.2 | -9 | 85* | 124*
CCOc1ccc(N2C(=O)CC(SC(=NC)Nc3ccc(F)cc3)C2=O)cc1 (centres undefined) | i | 0.95 | 54 | -0.7 | -8 | 14 | 132
NNC(=O)c1cc(-c2ccc(O)cc2)nc2ccc(Br)cc12 | i | 0.97 | 96 | . | . | . | .
N#Cc1ccc(NC(=O)c2cc(-c3cccs3)on2)cc1 | i | 0.94 | 100 | . | -3 | . | .
Cc1cc(C(=O)CN2C(=O)NC3(CCCc4sccc43)C2=O)c(C)n1-c1ccccc1 (centres undefined) | i | 0.75 | 107 | -0.8 | -9 | 36 | 133
COCC(=O)N1CCN(c2nc3ccccc3o2)CC1 | i | 1.1 | 100 | . | -1 | 29 | 98
SMILES | HSV replic up | HSV replic up primary fold | RGS16-Gao HTS | GALR2 agonist | PKD1 kinase inh | INS promoter inh | INS promoter inh cell count
C=CCNC(=O)NC(=O)COC(=O)CCCSc1nc2ccccc2[nH]1 | i | 0.81 | 104 | -2.2 | -7 | 29 | 96
CC(=O)Oc1ccccc1C(=O)Nc1ncc([N+](=O)[O-])s1 | i | 0.63 | 93 | . | . | . | .
Cc1cccc(OCCOc2ccccc2C=C(C#N)C#N)c1 | i | 0.73 | 102 | -0.5 | -14 | -7 | 93
CCOc1ccc2[nH]c(=O)c(C(c3nnnn3Cc3ccco3)N3CCCC(C)C3)cc2c1 (centres undefined) | i | 1.2 | 92 | 4.0 | -8 | -7 | 67
CCOC(=O)c1c(Nc2ccc(Cl)cc2)sc(/C=C2\C=Nc3ccccc32)c1O | i | 0.83 | 99 | -2.4 | -6 | -50 | 128
O=C(NCCc1ccc2c(c1)OCCO2)c1ccc([N+](=O)[O-])cc1Cl | . | . | 94 | . | -4 | 36 | 68
Cc1cc(C)c[n+](CC(=O)c2ccc(-c3ccccc3)cc2)c1 | i | 0.96 | 102 | -1.2 | -1 | 56 | 75
Cn1nc(C(=O)NCc2cccnc2)c2ccccc2c1=O | i | 1 | 102 | -0.7 | -2 | -224 | 118
CSc1nc(-c2ccccc2)cc(C)c1C#N | i | 1 | 115 | . | -3 | . | .
COc1ccc(NC(=O)C(=O)N/N=C/c2cccnc2)cc1 | i | 0.9 | 100 | . | . | . | .
O=C(c1ccco1)N1CCN(C(=O)C2CC(c3ccc(Cl)c(Cl)c3)=NO2)CC1 (centres undefined) | i | 0.98 | 101 | -2.1 | -2 | -362 | 48
O=c1nccc(Nc2ccccc2)[nH]1 | i | 1 | 105 | . | . | . | .
O=C(COC(=O)c1ccc(Br)o1)Nc1ccc(S(=O)(=O)N2CCCC2)cc1 | i | 0.91 | 99 | -2.1 | 6 | 5 | 157
CCN(CC)C(=O)C(=O)c1c(-c2ccccc2)[nH]c2ccccc12 | i | 0.98 | 77 | -0.7 | 11 | . | .
Cc1nn(Cc2cccc(C(=O)NC(C)c3ccc(C(C)(C)C)cc3)c2)c(C)c1[N+](=O)[O-] (centres undefined) | i | 0.97 | 120 | -1.3 | -4 | 35 | 159
Cc1ccc(Nc2c(-c3ccco3)nc3nc(C)cc(C)n23)cc1 | i | 0.99 | 108 | . | -9 | -127 | 141
O=C(Nc1cccc([N+](=O)[O-])c1)c1ccc(N2CCCC2=O)cc1 | i | 0.89 | 103 | . | 2 | . | .
CCN1CCc2c(sc(NC(=O)c3ccc(S(=O)(=O)N4CCOCC4)cc3)c2C(N)=O)C1 | i | 0.9 | 73 | -1.1 | 1 | 40 | 95
Cc1ccc2nc(NC(=O)CSc3nncc(=O)n3N)sc2c1 | i | 1 | 79 | -1.5 | 0 | 20 | 80
C/C(=N/OC(=O)c1cccc(Cl)c1)c1nccs1 | i | 0.82 | 93 | -2.2 | 2 | -26 | 66
COC(=O)Nc1cc(C(F)(F)F)ccc1N1CCN(c2ccccc2)CC1 | i | 0.85 | 103 | -1.9 | 9 | 25 | 134
O=C1CC(c2ccccc2)CC(O)=C1C=NCc1ccccc1 (centres undefined) | i | 0.86 | 105 | -0.6 | -4 | -12 | 102

Screening results from PubChem BioAssay.
